# Source: PubChem BioAssay
# T cruzi repl = inhibitors of intracellular T. cruzi growth, primary screen, luminescence, NIH3T3 host cells; T. cruzi beta-gal in NIH3T3, 90 h; inhibition, % (no concentration beside the values); hit rate 1.4% among 300,000; AID 1885, 2009;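 active = mean inhibition across valid replicates above about 55%, limit read from the data; inconclusive = mean below that limit but half or more replicates reach it; inactive = mean below it, under half of replicates reach it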;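 also: signal also drops with host cell toxicity which is not excluded here; 0% = plate median of DMSO wells and 100% = zero luminescence signal; higher percent means less beta-gal luminescence so fewer parasites; stock transfer was 50 nL into about 50 µL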
# rRNA inh HTS = reduced GFP signal of wild-type E. coli, primary screen, bacterial rRNA inhibitor project, GFP/RFP fluorescence, OD600, single point; E. coli WT GFP vs humanized-ribosome RFP mutants, 24 h; stronger effect = lower value; DMSO median 0, no signal -100; GFP signal change (wild-type ribosome), % (no concentration beside the values); hit rate 1.6% among 350,000; AID 720706, 2013;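 active = significant combined selectivity score with lowered wild-type GFP, culture density cut under 30%, mutant RFP and density less affected; inactive = any of these conditions unmet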; also: one replicate is shown; some compounds called inactive have numbers as strong as hits
# Vif TR-FRET = inhibitors of Vif binding to APOBEC3G peptide, primary screen, biochemical, TR-FRET, GST-Vif 1-94, biotin-A3G peptide, dose response retest (AID 1117319) | Virion infectivity factor (Human immunodeficiency virus type 1 group M subtype B (isolate … | TR-FRET GST-Vif / biotin-A3G peptide binding; higher % means a stronger effect; test concentration not given here; strong numbers were not always called active | inhibition, %; hits with a dose series show IC50 in µM | hit rate 0.57% among 260,000;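 active = above the screen mean plus three standard deviations and confirmed in dose response; inconclusive = results disagree or hit not tested in dose response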;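 also: Vif residues 1-94 fused to GST binding biotinylated APOBEC3G peptide 110-148; 0% = full assay without inhibitor and 100% = GST in place of GST-Vif; retest series ran down from 100 µM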
# RanGTP-Impb inh = inhibitors of RanGTP-importin-beta interaction, primary screen, biochemical, FRET, CFP-Ran, YFP-importin-beta, homogeneous; cell-free CFP-Ran/YFP-importin-beta FRET ratio; inhibition, % (test concentration not listed); hit rate 1.1% among 300,000;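 active = most replicates above 15%; inconclusive = exactly half above 15%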;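 also: 0% = DMSO wells and 100% = Ran loaded with GDP instead of GTP; wells of about 40 µL received 100 nL stock; the first replicate is given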
# Calb FLC = C. albicans growth inhibition with fluconazole, primary screen, CaCi-2 strain, Alamar Blue fluorescence. hit rate 0.57% among 300,000. C. albicans CaCi-2 (fluconazole-resistant clinical isolate) + fluconazole, 48 h. growth inhibition, % (no concentration beside the values);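 active = most replicates above 75%; inconclusive = exactly half above 75%; inactive = most below 75%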;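 also: all wells also contain fluconazole at 8 µg/ml as a sub-toxic cotreatment; 0% = median of DMSO wells and 100% = median of geldanamycin control wells; wells of about 8 µL received 7.5 nL stock; the first replicate is given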
# Beta cell apopt = inhibitors of cytokine-induced beta cell apoptosis, primary screen, luminescence | INS-1E cytokine-induced death, ATP luminescence, 48 h; percent of positive-control rescue, neutral wells zero | protection from apoptosis, % (no concentration beside the values) | hit rate 0.8% among 300,000;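 active = all replicates at 75% or more, or half of them and the mean; inconclusive = half reach 75% but not the mean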;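 also: 0% = cytokine-treated negative control wells and 100% = positive control rescue; higher means more ATP so stronger rescue from cytokine killing; wells of about 40 µL received 100 nL stock; the first replicate is given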
# MLL AF4-AF9 inh = inhibitors of AF4 peptide binding to AF9, primary screen, biochemical, AlphaScreen, biotin-AF4 peptide, FLAG-AF9, single point. Protein AF-9 (Homo sapiens), P42568. inhibition, % at 10 µM. hit rate 0.47% among 350,000. AID 651704, 2012;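 active = every replicate reaching a set inhibition limit, whatever the replicate mean, cut at about 25% in these data; inconclusive = mean inhibition reaches that limit but some replicates miss it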;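 also: 0% = plate neutral control median and 100% = total signal loss; the record names both 10 and 1 µM as test concentration; the first replicate is given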
# Target sequence (P42568 whole entry, looked up): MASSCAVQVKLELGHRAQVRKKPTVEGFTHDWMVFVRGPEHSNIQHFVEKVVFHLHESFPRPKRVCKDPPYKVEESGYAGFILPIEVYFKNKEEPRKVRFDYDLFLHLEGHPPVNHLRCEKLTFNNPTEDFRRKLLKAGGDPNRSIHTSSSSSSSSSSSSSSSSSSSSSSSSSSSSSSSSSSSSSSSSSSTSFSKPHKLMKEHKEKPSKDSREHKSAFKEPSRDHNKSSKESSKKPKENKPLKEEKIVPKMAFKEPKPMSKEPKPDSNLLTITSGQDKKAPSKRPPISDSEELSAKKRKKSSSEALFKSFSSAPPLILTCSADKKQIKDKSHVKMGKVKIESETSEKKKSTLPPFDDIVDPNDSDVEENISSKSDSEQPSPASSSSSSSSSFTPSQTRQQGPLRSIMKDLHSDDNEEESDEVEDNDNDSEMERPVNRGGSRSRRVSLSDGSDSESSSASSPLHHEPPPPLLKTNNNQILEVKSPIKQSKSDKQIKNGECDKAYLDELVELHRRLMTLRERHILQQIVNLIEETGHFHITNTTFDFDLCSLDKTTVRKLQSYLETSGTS
# A1 inh = caspase 3/7 activation in MEF A1-2A-BIM cells, primary screen, A1 inhibitor project, cell-based, luminescence, HTS. Caspase-Glo 3/7 luminescence, 3 h; percent of clofoctol response, vehicle zero. caspase activation, % (test concentration not listed). hit rate 0.066% among 330,000;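 active = over half of replicate activation scores above 10%, or exactly half above 10 with the replicate mean above 10; inconclusive = replicate mean below 10 yet half the replicates above 10; inactive = over half of replicates below 10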;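 also: wells of about 30 µL received 50 nL stock; many hits fall short of the cut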
# rRNA inh HTS OD600 = also measured in rRNA inh HTS; calls as there; OD600 change, %; measured here: OD600 growth;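 optical density of the mix in the first replicate; 0 = DMSO median and -100 = no signal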
# rRNA inh HTS RFP = second read-out of rRNA inh HTS, no call of its own (marks repeat the call); RFP signal change, %; measured here: RFP humanized mutant strains;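 first replicate; 0 = DMSO median and -100 = no signal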
# Starred values were filed as active, the others as inactive; ? = inconclusive; / = no result given; & = joins results of further samples.
SMILES	T cruzi repl	rRNA inh HTS	rRNA inh HTS OD600	rRNA inh HTS RFP	Vif TR-FRET	RanGTP-Impb inh	Calb FLC	Beta cell apopt	MLL AF4-AF9 inh	A1 inh
NCCc1nnc(SCc2ccccc2F)o1	11	/	/	/	3%	7.5	-5	-1	/	0.9
CC(C)(C)c1ccc(C(=O)NCCCn2ccnc2)cc1	-13	-1	-7	0.2	4%	6.3	4	8	1.0	1.0
O=C(NCc1ccc(F)cc1)c1cccc(NC2=NC3CS(=O)(=O)CC3S2)c1 (stereo unspecified)	-6	3	7	-0.6	/	-0.1	0	-7	-0.4	-0.7
CC(C)(C)NC(=O)CSc1ncnc2c1nnn2Cc1ccccc1Cl	29	/	/	/	-5%	2.3	-5	-14	/	1.4
O=C(CSc1nc2cc3ccccc3cc2[nH]1)Nc1ccc(F)cc1	7	/	/	/	2%	3.5	-19	0	/	0.9
COC(=O)c1c(S(N)(=O)=O)c2ccccc2n1C	-18	/	/	/	?	-1.2	17	-2	/	-0.2
C=CCc1ccc(OCCCCCN2CCOCC2)c(OC)c1	16	/	/	/	1%&15%	2.0	-1	1	/	0.0
COCCNC(=O)CN1N=C(c2ccc(C)cc2)CCC1=O	0	7	8	0.1	-8%	-1.4	-8	-5	0.2	0.3
CCOc1nc(N2CCOCC2)nc(N2CCOCC2)n1	-3	5	13	3.3	-3%	2.7	55	2	-0.8	1.7
CC(C)(C)NC(=O)CN(C(=O)c1csnn1)c1cccc2c1CCCC2	-17	20	2	3.4	5%	-2.6	2	3	0.1	2.0
CCN(CC)CCNc1nc2cc(OC)c(OC)cc2c2nc(-c3ccccc3)nn12	65*	/	/	/	-11%	4.0	-3	/	/	-0.1
CC1CC(C)CN(S(=O)(=O)c2ccc(C(=O)N3CCOCC3)cc2)C1 (stereo unspecified)	5	12	5	1.2	-1%	3.8	-2	-9	-1.3	-0.6
CCOC(=O)C1CCCN(c2c(NCCN(CC)c3ccccc3)c(=O)c2=O)C1 (stereo unspecified)	2	2	4	1.4	82%	2.0	0	-6	-1.2	0.7
Cc1ccc(Nc2ncccc2C(=O)O)cc1C	9	6	-13	-1.2	5%	-0.7	13	-1	3.0	-2.8
O=c1c2ccccc2c(C=Nc2cccc(S(=O)(=O)NC3=NCCCCC3)c2)c(O)n1Cc1ccccc1	47	-2	4	-0.1	33%	-85	-1	4	18	-0.3
C=CCC[C@H](Cc1ccc(F)cc1)C(=O)OC[C@@H]1CCCN1C(=O)[C@@H](CC=C)CC(=O)NCCO	/	-6	-10	-0.7	/	/	/	-3	-1.1	-0.3
COc1cc(C(=O)NCC(c2ccco2)N2CCCC2)ccc1OCc1ccccc1 (stereo unspecified)	/	-1	-2	7.3	4%	/	/	0	9.8	0.2
COc1c(Br)cc([N+](=O)[O-])c(OC)c1C(=O)NC(=O)Nc1c(Cl)cccc1Cl	/	-38*	-8.3*	2.8*	-4%	-1.6	84*	/	2.1	0.6
Cc1cccc(NC(=O)C2Cc3ccccc3O/C2=N\O)c1 (stereo unspecified)	-1	10	16	0.7	24%	-1.4	2	-9	4.5	-0.4
CC(CC(=O)Nc1cccc(S(=O)(=O)N2CCCCC2)c1)c1ccccc1 (stereo unspecified)	/	-5	-22	-2.4	-3%	/	/	-4	-1.3	0.9
CN1c2ccccc2C(O)=C(C(=S)Nc2ccccc2)S1(=O)=O	8	/	/	/	4%	7.8	-3	0	/	-1.7
N=C(N)c1ccc(/C=C/c2ccc(C(=N)N)cc2O)cc1	0	33	8	0.0	-16%	-7.6	95*	3	61*	1.3
Cc1cc(C)c2sc(NC(=O)CN3C(=O)CCC3=O)nc2c1	-7	4	11	6.4	-2%	-1.0	6	-3	0.0	0.7
CC(=O)Nc1ccc(N(C(=O)CNC(=O)c2ccco2)C(C(=O)NCc2ccco2)c2ccccc2F)cc1 (stereo unspecified)	-10	4	7	-0.4	/	0.1	-11	-11	3.9	0.2
COc1ccc(NC(=O)C2(S(=O)(=O)c3ccc(C)cc3)CC2)cc1	-1	6	5	-0.1	/	5.9	6	-4	-1.1	0.2
O=C(NC1CCCN(Cc2ccccc2F)C1)c1cccs1 (stereo unspecified)	-5	10	4	0.9	/	4.2	14	-1	-4.2	0.2
CN(c1ccccc1C(=O)NCC1CCCO1)S(C)(=O)=O (stereo unspecified)	5	/	/	/	-1%	0.0	1	-3	/	0.1
COc1ccc(C(=O)N/N=C/c2ccc(OC)c(COc3ccc(F)cc3)c2)cc1	6	-4	-2	-3.5	2%	4.2	2	0	2.5	1.3
COc1ccc(NC(=O)Cn2nnc(-c3ccccc3NC(=O)c3ccco3)n2)cc1	1	/	/	/	1%	1.8	4	9	/	-0.4
COc1cccc(CNc2cc(C)ccn2)c1O	-17	24	21	2.0	0%	-0.2	0	1	0.7	-0.7
CCOC(=O)c1c(NC(=O)C2CCN(S(=O)(=O)c3cccs3)CC2)sc(C)c1C	23	/	/	/	-11%&-15%	2.7	-3	0	/	0.1
Cc1cc(=O)oc2cc(NC(=O)c3c(Cl)cnn3C)ccc12	4	10	8	1.5	/	1.2	-1	12	-1.8	0.4
Cc1cccc(NC(=S)Nc2ccc(N3CCOCC3)cc2)c1C	51	/	/	/	/	8.0	-1	-6	/	-0.6
Cc1cc(/C=N/NC(=O)C(O)(c2ccccc2)c2ccccc2)c(C)n1-c1cccc(C(=O)O)c1	-7	9	-4	-0.2	/	8.0	5	5	?	1.0
Cc1cc(F)ccc1S(=O)(=O)Nc1ncnc2scc(-c3ccc(F)cc3)c12	1	0	-5	-5.5	1%	-0.4	0	14	0.4	-0.5
COc1ccc(COC(=O)Nc2cc3c(C(F)(F)F)nn(C)c3s2)cc1	14	/	/	/	-5%	0.4	2	/	/	2.6
O=C(NCN1C(=O)C2C3C=CC(C3)C2C1=O)Nc1ccccn1 (stereo unspecified)	-13	/	/	/	16%	3.8	-1	-6	/	-0.5
O=C(c1ccc(NC2=NC3CS(=O)(=O)CC3S2)cc1)N1CCN(c2ccccc2F)CC1 (stereo unspecified)	-5	14	15	0.3	/	-0.7	-9	0	48*	-0.4
Clc1ccc2c(c1)C(C1=NCCN1)c1ccccc1CS2 (stereo unspecified)	-6	/	/	/	/	-1.1	20	6	/	-0.3
Cc1cc(/C=N/N2CCN(C)CC2)c(C)n1-c1ccc(Cl)cc1	44	3	-9	6.6	13%	-1.4	4	-2	48*	0.3
CCCCSc1nc2c(c(=O)n1CC)SC(C)C2 (stereo unspecified)	8	0	-23	-14	-5%	-2.9	-16	9	2.4	-0.1
COc1ccccc1[C@@H]1C(c2cccc(Cl)c2)=NN(c2ccc(Br)cc2)[C@H]1C(=O)N1CCOC1=O	3	4	6	1.0	6%	?	-9	10	-10	1.2
CCc1c(C)nc(N2CCN(c3cccc(OC)c3)CC2)[nH]c1=O	4	-2	-2	-1.0	8%	-5.4	-2	1	2.2	-3.3
O=C(Nc1cc([N+](=O)[O-])ccc1O)c1cccc(C(=O)Nc2cc([N+](=O)[O-])ccc2O)c1	3	7	9	42	-1%	-1.6	-2	-1	-4.3	-4.6
Cc1cc(C)cc(OCc2nc(-c3cccnc3)no2)c1	10	-1	4	0.5	-2%	-2.4	-2	-8	-8.8	-0.7
COc1ccccc1C(=O)NC(CCSC)C(=O)NCC(c1cccs1)N(C)C (stereo unspecified)	7	5	5	-1.1	-7%	-0.9	3	-3	0.5	0.2
O=C(NC1CC1)C1CCN(Cc2cnn(-c3ccccc3)c2-n2cccc2)CC1	-4	/	/	/	-1%	-1.2	-8	-2	/	0.2
CNC(=O)N1c2ccccc2CCc2ccccc21	-7	7	14	0.0	/	3.1	3	18	-14	0.2
CCCCn1c(N)c(N(CC(C)C)C(=O)c2ccc3c(c2)NC(=O)C(C)S3)c(=O)[nH]c1=O (stereo unspecified)	-10	11	10	5.1	/	-0.1	-8	0	-17	1.4
Cc1csc(NC(=O)Cc2ccccc2[N+](=O)[O-])n1	-15	/	/	/	-11%	5.5	-4	-5	2.2	-0.1
NC(=O)c1ccc(-n2nnnc2SCC(=O)NC2CCCCC2)cc1	-11	18	16	2.4	/	1.6	-3	-6	-0.5	0.5
Cn1cc(Br)c(-c2cccc(N3C(=O)CCCC3=O)c2)n1	-32	24	3	2.4	9%	-1.6	3	-7	-0.9	0.1
Cc1ccc(NC(=O)CSc2ncc3ccccn23)cc1C	11	3	5	18	-2%	5.1	8	-22	9.5	0.8
Cc1cc(S(=O)(=O)N2CCOCC2)ccc1OCC(=O)N1CCCC1	-7	5	1	-6.0	-5%	6.7	4	-4	0.9	1.4
FC(F)(F)c1nc(N2CCN(c3ccccc3)CC2)nc2c1CCCCC2	7	/	/	/	?	-1.2	0	16	/	0.1
Cc1ccc(CN2CCC(C(=O)Nc3ccc(Oc4cccnc4)cc3)CC2)cc1	16	3	2	0.4	/	-1.4	8	/	1.7	/
O=[N+]([O-])c1ccc2nc(SCc3cn4cc(Cl)ccc4n3)[nH]c2c1	29	/	/	/	-6%	0.6	-7	-1	/	0.2
Cc1c(NS(=O)(=O)c2ccc(N3CCN(C)CC3)c([N+](=O)[O-])c2)c(=O)n(-c2ccccc2)n1C	-8	15	5	-0.3	-8%	-3.1	-8	/	-0.9	0.0
CC1CC(C)CN(C(=O)CSc2nnc(-c3ccc(Cl)s3)o2)C1 (stereo unspecified)	14	-47	-72	-6.6	?	-2.7	1	2	-0.7	0.4
Cc1nc(NC(=O)CSc2nccn2C)sc1C(=O)N(C)C	-3	9	5	0.8	-2%	2.2	-5	2	-0.5	-0.2
CCCCOc1ccc(C(=O)N2CCN(c3ncccn3)CC2)cc1	-4	-13	-11	1.2	/	0.8	4	-1	-0.2	0.4
COc1cc(C(=O)Oc2ccccc2N)cc(OC)c1OC	-2	/	/	/	-1%	-3.8	16	0	/	-0.5

# Not all compounds are listed, so the mix of outcomes need not match the whole.
